# gsp ag: qHTS for Agonist of gsp, the Etiologic Mutation Responsible for Fibrous Dysplasia/McCune-Albright Syndrome: qHTS; 0.13% of 340,000 active; Potency, µM (top dose mostly 76.9 µM), for the others: top-dose activation (cAMP increase), actives largely listed as activators; gsp mutant cells, cAMP HTRF, 30 min; control for the full effect not named in the record; active = well fitted activation curve with a large enough effect; inconclusive = small, poorly fitted or top-dose-only effect, or another doubt; inactive = no such curve, though single readings can be large or run the other way; cell line not stated here;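 further: phosphodiesterase inhibitor Ro 20-1724 added with compounds to block cAMP breakdown; potency means the concentration at half of the fitted maximal effect; nearly all actives have a fitted effect of over 60% in size; about a fifth of the inactives were tested at one dose only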
#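 Cells stably selected in G418 were plated at 2000/well, grown 16-24 hr, then given compounds in DMSO with the PDE inhibitor […] (300 uM solution added) for 30 min at 37C; cAMP was read by HTRF.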
# Menin-MLL FL inh: qHTS Assay for Inhibitors Targeting the Menin-MLL Interaction in MLL Related Leukemias: Competition With Fluorescein Labeled MLL-derived Peptide; AID 1766, 2009; 290,000 tested, under 10 active; Fluorescence polarization, fluorescein-MLL peptide displacement from menin; FP activity change, % at 61.4 µM; inconclusive = falling polarisation curve, or a change in total fluorescence; inactive = total fluorescence flat and polarisation flat or rising; no compound was filed as active; the % refers to the polarisation; negative = inhibition;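 further: % of control where 0% means no effect; inhibitors lower the polarisation; unlabelled MLL peptide was the positive control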
# Sfp inh: qHTS Assay for Inhibitors of Bacillus subtilis Sfp phosphopantetheinyl transferase (PPTase); 4'-phosphopantetheinyl transferase ffp (Bacillus subtilis), Q9F4F7; Biochemical Sfp PPTase activity, qHTS; Potency, µM, for the others: max response, negative = inhibition, hits mostly inhibitors; 3.5% of 310,000 active; active means well fitted inhibition curve with a large enough effect; inconclusive means small, poorly fitted or top-dose-only effect, or another doubt; inactive means no such curve, though single readings can be large or run the other way;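 further: the enzyme is Sfp with the accession as filed and its product quenches rhodamine fluorescence; potency means the concentration at half of the fitted maximal effect; 0% = enzyme reaction without inhibitor and -100% = no enzyme wells; top concentration of the series not given in the record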
#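 Compounds were incubated with enzyme (final 15 nM) for 15 min at room temperature before substrate addition started the reaction. Fluorescence at 525 nm excitation, 598 nm emission was recorded immediately and after 30 minutes.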
# PINK1 modulator: A Quantitative High throughput Screen to Identify Chemical Modulators of PINK1 Expression; 0.2% of 410,000 active; AID 624263, 2012; PINK1 immunofluorescence, high-content cytometry, 24 h; Potency, µM (top dose mostly 76.6 µM), inactives show top-dose activation (PINK1 increase), actives largely listed as activators; active = well fitted activation curve with a large enough effect; inconclusive = small, poorly fitted or top-dose-only effect; inactive = flat fitted curve, though single readings scatter; cell line not stated here;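 further: potency means the concentration at half of the fitted maximal effect; % of control where 0% means no effect; nearly all actives have a fitted effect of over 65% in size; a mitochondrial uncoupler was the plate control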
#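 Stable cell line treated 24 h with compounds at 5 concentrations (CCCP controls), then fixed and immunostained for PINK1 plus nuclear and cell stains; PINK1 immunofluorescence quantified by laser-scanning microplate cytometry.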
# ClpP mod: qHTS Assay for Activators of ClpP | AID 651965, 2013 | Potency, µM (highest dose often 57.5 µM), for the others: at the highest dose activity change, negative = active | purified B. subtilis ClpP, FRET peptide cleavage, 20 min | 1.9% of 340,000 active; active = well fitted falling curve with a large enough effect; inconclusive = small, poorly fitted or top-dose-only effect; inactive = no such curve, though single readings can be large or run the other way; further: potency means the concentration at half of the fitted maximal effect; the source files actives as falling curves though it sought activators and does not explain the sign; nearly all actives have a fitted effect of over 65% in size; many hits overshoot -100%
# Target sequence (P80244 whole entry, looked up): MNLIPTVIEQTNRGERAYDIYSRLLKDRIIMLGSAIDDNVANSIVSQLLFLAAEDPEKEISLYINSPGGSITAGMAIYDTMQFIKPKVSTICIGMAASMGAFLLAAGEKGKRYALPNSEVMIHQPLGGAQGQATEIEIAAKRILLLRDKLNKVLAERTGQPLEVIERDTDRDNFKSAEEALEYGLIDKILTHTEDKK
#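 FRET quenching reversal measured ClpP activation: 10 microg/mL B. subtilis ClpP at pH 8 with the FRET-FV decapeptide, read at 430 nm after 320 nm excitation. The 20-min minus 0-min signal was scaled between DMSO/no-enzyme wells and ADEP (5.8 microM final).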
# D2 ag: Beta-Arrestin HTS for Positive Allosteric Modulators of the Human D2 Dopamine Receptor: Agonists; D(2) dopamine receptor (Homo sapiens), P14416; 0.084% of 360,000 active; DiscoveRx PathHunter D2 beta-arrestin, luminescence, 90 min; 100% = 57 uM dopamine signal; activation, % (test concentration not listed); AID 624465, 2012; in the data active = activation above about 40%; inconclusive = about 15% to 40%; inactive = below about 15%; further: compound concentration not given in the record; the text of the record calls up to 30% inactive
# Target sequence (P14416 whole entry, looked up): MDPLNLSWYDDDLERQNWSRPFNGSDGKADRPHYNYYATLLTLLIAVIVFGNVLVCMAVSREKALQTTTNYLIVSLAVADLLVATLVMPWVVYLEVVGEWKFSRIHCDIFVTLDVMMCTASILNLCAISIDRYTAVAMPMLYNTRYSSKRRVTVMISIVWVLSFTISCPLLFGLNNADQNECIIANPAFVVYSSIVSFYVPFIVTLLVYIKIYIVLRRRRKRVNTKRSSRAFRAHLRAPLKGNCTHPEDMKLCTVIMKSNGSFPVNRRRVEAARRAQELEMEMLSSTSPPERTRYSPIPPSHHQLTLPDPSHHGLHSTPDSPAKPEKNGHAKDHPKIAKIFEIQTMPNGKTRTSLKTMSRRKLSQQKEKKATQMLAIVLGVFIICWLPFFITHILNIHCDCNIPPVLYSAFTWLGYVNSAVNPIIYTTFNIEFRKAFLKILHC
#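 Agonist mode: compounds alone added to overnight-plated D2 PathHunter cells for 90 min at 37 C, with 57 uM final dopamine (EC100) defining full response. Beta-arrestin recruitment detected by chemiluminescent reagent, read after 1 h at ambient temperature.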
# gsp antagonist: qHTS for Antagonists of gsp, the Etiologic Mutation Responsible for Fibrous Dysplasia/McCune-Albright Syndrome: qHTS; gsp-mutant cells, cAMP HTRF, 30 min; control for the full effect not named in the record; Potency, µM (top dose mostly 76.9 µM), without a hit: at the highest dose activity change, negative = inhibition, actives largely listed as inhibitors; 0.4% of 340,000 active; AID 624288, 2012; active = falling curve of any shape with a large fitted effect; inconclusive = falling curve, mostly with a smaller effect; inactive = flat or rising curve; cell line not stated here;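 further: intracellular cAMP measured with PDE inhibitor Ro 20-1724 present during compound exposure; potency means the concentration at half of the fitted maximal effect; on the % scale 0 is the no-effect control and ±100 the full control effect; nearly all actives have a fitted effect of over 65% in size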
#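 Cells, 2000/well, grown 16–24 h in DMEM 10% FBS with 0.5 mg/ml G418, then compounds plus […] (300 uM addition stock), 30 min at 37C. cAMP read by HTRF (cAMP-d2 and anti-cAMP antibody-K in lysis buffer) after 30 min RT.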
# * = called active by the depositor; ? = inconclusive; / = not tested or not shown; [ ] = remark or other dose.
# Second line of a record – gsp ag	Menin-MLL FL inh	Sfp inh	PINK1 modulator	ClpP mod	D2 ag	gsp antagonist
- CCN(CC)S(=O)(=O)c1ccc(O)c(C(=O)OCC(=O)Nc2cc(C)c(C)cc2[N+](=O)[O-])c1
    6%[15.4 µM]	-2.1	2%	0.9%	/	-8.7	-19%
- COc1ccc(N2C(=O)/C(=C/c3ccc([N+](=O)[O-])cc3)C=C2c2ccccc2)cc1
    -6%	2.7	8%	8.1%[38.3 µM]	-1.2%	-0.5	8%
- CCOCC(=O)Nc1c(C(=O)Nc2ccc(OC)cc2OC)oc2ccccc12
    20%	3.9	9%	12%[38.3 µM]	1.7%	-3.7	6%
- Cc1ccccc1OCC(=O)OCC(=O)N1CCCc2ccccc21
    -29%	/	/	0.2%	1.2%	-2.8	5%
- COc1ccc(C(CCN2CCOCC2)c2c(OC)cc(OC)c3ccc(=O)oc23)cc1 (stereo unspecified)
    /	/	/	0.7%	-13%	-2.3	7%
- CC(=O)N(c1ccccc1Cl)S(=O)(=O)c1ccc(Cl)cc1
    14%[15.4 µM]	-0.4	29%	-0.3%	-0.1%	-1.7	2%
- CC1(C(=O)NS(=O)(=O)c2ccc(Cl)cc2)CCN1C(=O)c1ccc(C2CCCCC2)cc1 (stereo unspecified)
    /	/	/	-1.1%	-0.7%	-2.3	/
- CC1(C)CC(NC(=O)CC2CCCCC2)CC(C)(C)N1
    9%	0.6	23%	-0.8%	-2.3%	-2.5	-3%
- Nc1cc(S(=O)(=O)O)cc2ccc(S(=O)(=O)O)cc12
    ?	/	/	0.1%	/	5.1	12%
- O=C(CNC(=O)c1ccccc1)NCC(c1ccco1)N1CCCC1 (stereo unspecified)
    -138%[inhibitor]	/	/	-0.2%	0.1%	-3.0	15%
- O=C(NC(=S)NCCc1ccccn1)c1ccco1
    ?	-1.4	13%	23%	/	1.6	4%
- O=C(NCc1ccc2c(c1)OCO2)c1ccc(N2C(=O)C3CCCCC3C2=O)cc1 (stereo unspecified)
    -18%	2.0	4%	2.9%	-1.8%	2.9	3%
- Cc1ccc(C)c(S(=O)(=O)NC2CCSC2=O)c1 (stereo unspecified)
    -5%[15.4 µM]	/	/	1.6%	/	3.7	7%
- Cc1cc(N2CCN(C)CC2)nc2ccc(NC(=O)c3ccc(Br)o3)cc12
    -8%	0.8	-6%	0.3%	-4.9%	-2.7	11%
- Cc1ccc(C)c(S(=O)(=O)N2CCN(C(=O)Cn3c(C(F)(F)F)nc4ccccc43)CC2)c1
    -12%	0.2	8%	2.3%	-1.2%	-0.5	-7%

# Whole records from above. Values in the order: gsp ag | Menin-MLL FL inh | Sfp inh | PINK1 modulator | ClpP mod | D2 ag | gsp antagonist
# Record of `CC(=O)N(c1ccccc1Cl)S(=O)(=O)c1ccc(Cl)cc1` : 14%[15.4 µM] | -0.4 | 29% | -0.3% | -0.1% | -1.7 | 2%
# Record of `Cc1ccccc1OCC(=O)OCC(=O)N1CCCc2ccccc21` : -29% | / | / | 0.2% | 1.2% | -2.8 | 5%

# (list continues)
# Second line of a record – gsp ag	Menin-MLL FL inh	Sfp inh	PINK1 modulator	ClpP mod	D2 ag	gsp antagonist
- C[C@@H]1C(c2cccc(Cl)c2)=NN(c2ccccc2)[C@H]1C(=O)N1CCOC1=O
    /	-2.6	9%	1.4%	4.6%	2.7	-14%
- Cc1cc2nc(Cl)c(Cl)nc2cc1C
    ?	0.9	-2%	0.0%	-0.9%	-3.3	-11%
- Cc1ccc(-n2c(SCC(=O)NCc3cccs3)nnc2-c2ccoc2C)cc1
    -19%	2.3	-4%	1.4%	0.8%	-6.5	-22%
- CC(C)C[C@H](NC(=O)Nc1ccccc1F)C(=O)O
    -25%	3.0	11%	-1.0%	0.6%	-4.0	9%
- COc1ccc(N=Nc2ccc(N)nc2N)cc1
    -14%	6.7	-12%	0.6%	/	-4.5	4%
- CC1CC(C)CN(C(=O)c2cc(-c3ccccn3)nc3ccccc23)C1 (stereo unspecified)
    24%	1.5	-1%	-4.3%	-0.6%	-1.2	-13%
- COc1ccc(N2CCN(C(=O)COC(=O)CNC(=O)c3ccccc3)CC2)cc1
    -29%	/	14%	-0.7%	-2.3%	1.7	0%
- O=C(Nc1nnc(S(=O)(=O)N2CCOCC2)s1)c1ccc(Cl)cc1
    -11%	-2.8	21%	1.7%	-5.2%	-0.3	-23%
- CSCCCNC(=S)N1CCN(S(=O)(=O)c2cccc(C(F)(F)F)c2)CC1
    -26%	/	26%	3.8%	1.2%	-0.6	-13%
- CCn1c(=O)n(CC)c2cc(N3CCCC3)c(NC(=O)c3ccccc3C)cc21
    ?	-2.6	-10%	2.0%	0.9%	2.4	-20%
- Cc1cc(C(=O)COC(=O)c2ccc[nH]c2=O)c(C)n1CCc1ccc(F)cc1
    1%[15.4 µM]	1.1	17%	0.7%	/	-0.7	-38%
- CCCCCC1CC(CC/C(C)=N/NC(N)=O)C(=O)O1 (stereo unspecified)
    5%[15.4 µM]	-1.3	16%	-1.8%	?	-2.9	-1%
- CC1=C(C(=O)OC(C)C)C(c2cccs2)C(C(=O)OC(C)C)=C(C)N1
    19%[15.4 µM]	5.8	54%[activator]	-1.7%	-0.5%	3.8	?
- Cc1ccc(-c2nc(N)sc2CC(=O)OCC(=O)NCC2CCCO2)cc1 (stereo unspecified)
    -17%	?	-93%	0.5%	0.1%	2.4	1%
- COC(=O)Cn1cnc2c(nnn2Cc2ccc(Cl)cc2)c1=O
    -18%	3.1	10%	5.6%[38.3 µM]	-0.9%	0.4	4%
- O=C1OCC2=C1C(c1ccc3c(c1)OCO3)c1cc3c(cc1O2)OCO3 (stereo unspecified)
    -1%	/	/	14%	3.9%	0.0	5%
- O=C1CCCCC(=O)c2ccccc2N1
    15%	-4.7	1%	-3.2%	-1.2%	-1.3	3%
- Cc1ccc(N(CC(O)CN2CCCCC2)S(=O)(=O)c2ccccc2[N+](=O)[O-])cc1 (stereo unspecified)
    4%[15.4 µM]	2.5	5%	-1.6%	/	0.2	7%
- O=C1C(=O)N(CCS(=O)(=O)c2ccccc2)c2ccc(F)cc21
    1%	/	3%	0.3%	0.9%	-25	25%
- O=C(CN(Cc1ccco1)S(=O)(=O)c1cccs1)Nc1ccccc1C(F)(F)F
    -27%	-1.6	3%	-1.9%	2.9%	-1.7	-11%
- Cc1ccccc1C(=O)NC(=S)NCCC1=CCCCC1
    17%[15.4 µM]	-9.4	12%	18%	/	2.5	3%
- CCN1CCN(C(=O)CCCn2c(C)c3cnn(-c4ccccc4)c(=O)c3c2C)CC1
    -46%[inhibitor]	1.0	13%	-1.1%	-6.8%	-3.6	-6%
- CCn1c(=O)cc(C(F)(F)F)[nH]c1=S
    11%[15.4 µM]	-1.9	79µM*	3.0%	/	-2.2	6%
- O=C(Nc1ccc(F)cc1F)c1ccc(-n2cncn2)nc1
    -29%	0.4	-4%	3.4%	0.8%	-2.2	7%
- COc1ccc(NC(=O)C2CCCN(S(=O)(=O)c3cccs3)C2)cc1OC (stereo unspecified)
    -42%[inhibitor]	-1.1	14%	/	1.0%	5.1	-5%
- O=C(CC(NC(=O)c1ccccc1)c1ccccc1)NCc1ccccc1 (stereo unspecified)
    -57%[inhibitor]	/	/	1.5%	1.6%	-3.8	-6%
- Cc1oc(-c2ccccc2Cl)nc1CSc1nc2c(c(=O)[nH]1)CCC2
    24%	-2.0	-13%	8.2%	2.8%	14	2%
- Cc1ccc(N2C(=O)C(CN3CCOCC3)C2c2ccccc2)cc1 (stereo unspecified)
    -29%	0.2	13%	-0.3%	/	-4.7	3%
- COCCNC(=O)CN(c1cccc(OC)c1)S(=O)(=O)c1ccc(C)cc1
    6%	-0.4	-11%	-3.7%	-2.6%	-0.6	-6%
- O=c1[nH]nc(SCc2nnc(-c3ccc([N+](=O)[O-])cc3)o2)n1C1CCCCC1
    ?	-1.6	15%	-0.6%	/	5.8	1%
- Cc1ccc(NC(=O)C(=O)Nc2ccc(C)cn2)nc1
    -13%	-8.7	27%	-1.8%	/	-0.3	4%
- CC(C)OCCc1cccc[n+]1[O-]
    /	/	/	1.4%	-1.6%	-6.6	/
- O=C(N/N=C/c1ccc(OC(F)F)cc1)c1cccc(S(=O)(=O)N2CCOCC2)c1
    -3%[15.4 µM]	-1.9	4%	2.2%	/	2.8	0%
- Cc1cc(C(=O)Nc2ccccc2C(F)(F)F)no1
    -46%[inhibitor]	5.6	14%	?	-0.4%	-0.5	7%
- COc1ccccc1CN1CC(C(=O)NCCc2ccccc2Cl)CCC1=O (stereo unspecified)
    -4%	5.9	18%	-1.7%	-0.8%	1.0	0%
- CCSc1ccccc1C(=O)NCc1ccc(S(N)(=O)=O)cc1
    9%	0.3	-1%	4.8%[38.3 µM]	-1.2%	-3.5	3%
- CC1C(=O)CC(c2ccc([N+](=O)[O-])cc2)NC1c1ccc([N+](=O)[O-])cc1 (stereo unspecified)
    5%[15.4 µM]	0.3	1%	-0.2%	/	-1.8	-6%
- O=C(OCC(=O)N1CCCCCC1)c1ccccc1Br
    -93%[inhibitor]	/	/	0.3%	2.5%	-3.0	-3%
- O=C(O)CCCC(=O)Nc1ccccc1C(=O)O
    -12%	-7.1	6%	6.3%[38.3 µM]	-21%	-1.8	-8%
- CCC1SC(CC)C(=O)N(CC(=O)NC2CCCCC2)C1=O (stereo unspecified)
    -17%[15.4 µM]	1.2	23%	2.7%	/	-0.9	9%
- CC(=O)N(c1ccccc1)C(C)c1nc(C#N)c(C#N)nc1C (stereo unspecified)
    10%	1.9	-6%	0.6%	0.6%	0.1	-10%
- N#Cc1c(F)cccc1NCc1cccnc1
    17%[15.4 µM]	-0.8	6%	-1.1%	-2.6%	-4.0	9%

# Screening results as filed in PubChem BioAssay.
